INS promoter inh: TRM-6 insulin promoter activity inhibition. TRM-6 cells (human fetal islet line), insulin promoter-eGFP reporter, imaging; reporter expression induced with tamoxifen. inhibition, % at 2 µM. 130,000 tested, 0.9% active;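 active means inhibition above the mean plus 3 SD, with well images judged a real hit on visual review, cut at about 60% in these data, passing the limit was not always enough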
GALR2 agonist: activates the human galanin receptor 2. O43603. GALR2-expressing cells, agonist activation read-out. activation, %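 (tested at 5 µM)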. 140,000 tested, 0.48% active;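 active means above mean plus 3 SD of all compounds, about 5% in these data, not always enough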;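 further: 0% = vehicle buffer wells and 100% = reference agonist at full effect; tested in CHO reporter cells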
HSV replic up: HSV replication enhancement | HSV replication augmentation in cells, fold increase | maximum fold increase | 220,000 tested, 0.005% active;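 active means peak rise of 1.5-fold or more in the series; tested in PC3 cells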;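 further: first round at 10 µM; read as green reporter fluorescence; hits show the peak of a series up to 25 µM; 1 = signal of infected wells without compound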
RGS16-Gao HTS: regulators of human RGS16-Galphao interaction; O15492+P09471; AID 1441; binding response (% of control), % at 10 µM; 220,000 tested, 0.38% active; bead-based flow cytometry RGS16-Galphao binding, fluorescence; actives lie on both sides;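 active means below 25% or above 175%, edge rows of some plates excepted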;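 further: Galphao activated by GDP with aluminum fluoride before binding; 100% = wells without compound and 0% = beads without RGS; some results beyond the cut were filed as inactive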
PKD1 inh: PKD1 (human) kinase inhibition; Q15139; PKD1 kinase fluorescence polarization assay; inhibition, %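 (about 10 µM by stock and volumes)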; 200,000 tested, 0.056% active; AID 797;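 active means inhibition of 50% or more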;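 further: controls were vehicle for no effect and a reference inhibitor for full effect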
Target sequence (Q15139 whole entry, looked up): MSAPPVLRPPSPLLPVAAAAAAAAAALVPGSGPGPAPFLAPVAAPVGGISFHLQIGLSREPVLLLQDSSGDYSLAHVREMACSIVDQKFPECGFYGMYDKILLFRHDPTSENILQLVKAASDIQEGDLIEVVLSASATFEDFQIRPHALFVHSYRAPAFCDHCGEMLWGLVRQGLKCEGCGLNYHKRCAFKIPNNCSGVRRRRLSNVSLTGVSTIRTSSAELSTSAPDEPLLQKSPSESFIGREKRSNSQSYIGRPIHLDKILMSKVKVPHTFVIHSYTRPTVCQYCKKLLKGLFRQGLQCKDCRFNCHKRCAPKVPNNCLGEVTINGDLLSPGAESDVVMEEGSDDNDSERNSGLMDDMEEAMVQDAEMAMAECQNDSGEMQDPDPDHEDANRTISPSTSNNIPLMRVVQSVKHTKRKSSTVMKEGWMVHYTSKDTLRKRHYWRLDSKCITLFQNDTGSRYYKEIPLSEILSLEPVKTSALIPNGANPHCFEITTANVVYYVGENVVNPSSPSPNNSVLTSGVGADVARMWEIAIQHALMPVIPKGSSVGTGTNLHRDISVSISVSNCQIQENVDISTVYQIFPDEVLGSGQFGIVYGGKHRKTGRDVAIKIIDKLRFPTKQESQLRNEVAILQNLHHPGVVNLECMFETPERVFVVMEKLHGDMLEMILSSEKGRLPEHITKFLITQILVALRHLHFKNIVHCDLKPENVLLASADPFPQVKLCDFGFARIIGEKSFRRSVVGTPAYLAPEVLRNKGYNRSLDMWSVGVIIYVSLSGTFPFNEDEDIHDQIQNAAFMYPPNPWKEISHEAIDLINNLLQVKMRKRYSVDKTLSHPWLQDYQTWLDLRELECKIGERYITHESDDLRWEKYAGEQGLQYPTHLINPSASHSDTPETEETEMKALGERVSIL
INS promoter inh cell count: second read-out of INS promoter inh, no call of its own (marks repeat the call); normalized cell count, %; measured here: cell count, toxicity; reference of the scale not given here;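 cells exposed to compound for 48 h; stained nuclei by imaging scaled within each plate; lower means fewer cells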
HSV replic up primary fold: also measured in HSV replic up; calls as there; fold increase; compound at 10 µM; measured here: primary screen fold increase 10 uM; tested in PC3 cells;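 GFP signal in the first replicate; 1 = infected wells without compound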
An asterisk follows results filed as active; i = inactive; x = no result given.

no.	smiles	INS promoter inh	INS promoter inh cell count	GALR2 agonist	HSV replic up
1	Cc1cc(C)n(CCOC(=O)c2sc3ccccc3c2Cl)n1	x	x	-0.8	i
2	COC(=O)c1ccccc1NC(=O)c1ccc(-c2ccc(Br)cc2)o1	21	167	0.8	x
3	Cc1cc(C)n2nc(SCCC(=O)NCc3ccccc3)nc2n1	x	x	x	i
4	CCOC(=O)C1=C(O)/C(=C\c2cccs2)N=C1C	-38	106	-0.4	i
5	CC(C)NS(=O)(=O)c1ccc(CCC(=O)Nc2ccc3c(c2)OCO3)cc1	-479	43	-1.7	i
6	CC(=O)Nc1ccc2oc(-c3cc(F)c(F)cc3Cl)nc2c1	39	77	-0.8	i
7	CCOc1ccccc1N1CCN(Cc2ccc(OC)c(OC)c2)CC1	x	x	-0.2	i
8	Cc1ccccc1NC(=O)c1ccc2snnc2c1	x	x	x	i
9	CCc1nnc(NC(=O)Cn2nnc(-c3ccccc3F)n2)s1	24	77	-1.2	i
10	O=S(=O)(c1cccs1)N1CCC(Cc2ccccc2)CC1	12	154	-0.2	i
11	CCN(Cc1ccccc1)S(=O)(=O)c1cc(C(=O)NCC2CCCCC2)ccc1OC	-32	114	-1.1	i
12	CCOc1ccc(C2=Nn3c(nnc3-c3cccnc3)SC2)cc1	-22	81	0.4	i
13	CCCC(=O)Nc1ccc(C(=O)n2nnc3ccccc32)cc1	-40	102	-0.5	i
14	CC1(C)Cc2nc3sc4c(=O)n(Cc5ccccc5)cnc4c3cc2CS1	-5	59	0.0	i
15	N#CC1=C2N=C(N)c3ccccc3N2C2=C(C(=O)CCC2)C1c1ccccc1F (configuration not stated)	x	x	x	i

no.	HSV replic up primary fold	RGS16-Gao HTS	PKD1 inh
1	0.99	106	4
2	x	104	0
3	0.99	100	3
4	0.99	101	-10
5	1.1	100	-6
6	0.82	98	-13
7	0.74	100	-11
8	0.93	104	-6
9	0.82	96	-5
10	0.92	108	-3
11	0.8	102	0
12	0.84	101	-6
13	1	92	3
14	1	107	1
15	1.1	100	x

(next part)
no.	smiles	INS promoter inh	INS promoter inh cell count	GALR2 agonist	HSV replic up
16	C/C(CC(=O)Nc1cc(C)ccn1)=N\NC(=O)C(=O)NC(C)C	-27	49	x	i
17	Cc1cc(C)n2nc(C(=O)NC(c3ccccc3)c3ccccc3)nc2n1	x	x	x	i
18	Cn1cc(CNCc2cn(C)nc2-c2ccc(C3CCCCC3)cc2)cn1	x	x	x	i
19	CCN(CC)CCNC(=O)Cc1nn(Cc2ccccc2)c(=O)c2ccccc12	x	x	x	i
20	O=C1CNC(=O)/C1=C/c1ccccc1	15	143	-1.2	i
21	O=C(Nc1cccc2cccnc12)c1ccc2c(c1)OCCO2	-7	56	-1.1	i
22	CC(C)CNC(=O)C(=O)NNC(=O)C1CCCCC1	x	x	0.0	i
23	CS(=O)(=O)Nc1cccc(C2=NN(S(=O)(=O)c3ccc(F)cc3)C(c3cccs3)C2)c1 (configuration not stated)	x	x	0.0	i
24	O=C(Nc1ccccc1C(=O)O)c1ccc(Cl)c(S(=O)(=O)N2CCOCC2)c1	x	x	-0.8	i
25	CCOC(=O)C1=C(O)/C(=C/c2ccccn2)SC1=Nc1ccc(Cl)cc1	7	114	-0.1	i
26	COc1ccccc1CNC(=O)CNC(=O)Cn1cnc2ccccc2c1=O	x	x	-0.3	i
27	Cn1ncc([N+](=O)[O-])c1C(=O)Nc1ccc(C2CCCCC2)cc1	x	x	x	i
28	C=CCNC(=O)c1onc(CCl)c1C(=O)OC	x	x	-0.6	i
29	CCc1nnc(NC(=O)CSc2nnc(COc3ccccc3C)o2)s1	-76	88	-1.2	i
30	CCOc1ccc(S(=O)(=O)N2CCC(C(N)=O)CC2)c2ccccc12	-21	62	1.6	i

no.	HSV replic up primary fold	RGS16-Gao HTS	PKD1 inh
16	1.1	93	-4
17	1.4	91	7
18	0.86	102	-1
19	1.1	103	-1
20	1	98	-9
21	0.88	96	5
22	1.1	102	-1
23	0.89	103	-1
24	1	99	6
25	0.81	112	-5
26	0.93	102	-12
27	0.87	92	0
28	0.89	103	0
29	0.98	101	0
30	1	99	-1

Additional entries follow:
no.	smiles	INS promoter inh	INS promoter inh cell count	GALR2 agonist	HSV replic up
31	COc1ccc(CN(C)CC(=O)Nc2sc3c(c2C#N)CCC3)c(OC)c1	x	x	x	i
32	Cc1cccc(N2CC(=O)N(c3cccc(C)c3)CC2=O)c1	x	x	-3.4	i
33	c1ccc2c(-c3nnc(SCc4cn5ccccc5n4)o3)c[nH]c2c1	-11	98	-2.8	i
34	Cc1ccc(C(=O)COC(=O)CNC(=O)CNC(=O)c2ccc(C)cc2)cc1	-15	104	-0.9	x
35	CC(C)(C)N(Cc1cc2ccccc2[nH]c1=O)C(=O)c1ccco1	40	112	x	i
36	COC(=O)C1=C2SC(C)C(=O)N2C(N)=C(C#N)C1c1ccc(OC)c(OC)c1 (configuration not stated)	82*	66*	-0.6	i
37	Oc1ccc(Cl)cc1-c1cc(-c2ccco2)[nH]n1	28	68	-1.1	i
38	CCC(=O)NC(=S)Nc1cccc(NC(=O)c2ccccc2Cl)c1	-21	69	0.1	i
39	Cc1ccc(-n2c(N)c(C(=O)Nc3ccccc3F)sc2=S)cc1C	-17	153	x	i
40	O=C1OCCC1Sc1nnc(-c2ccc3c(c2)OCO3)o1 (configuration not stated)	9	138	x	i
41	C=CCn1c(COc2ccccc2)nnc1SCC(=O)N/N=C/c1cc(Cl)ccc1O	-47	94	-1.2	i
42	CC(NC(=O)c1ccc(Br)s1)C1CCCO1 (configuration not stated)	-12	55	-0.8	i
43	CCN1CCN(c2cc(C(C)C)nc3c(-c4ccccc4)c(C)nn23)CC1	x	x	x	i
44	COc1ccc(C(CC(=O)O)NC(=O)c2ccccc2[N+](=O)[O-])cc1 (configuration not stated)	x	x	x	i
45	CCOc1ccc(-c2nnn(CC(=O)N3CCN(c4ccc(F)cc4)CC3)n2)cc1OCC	49	83	-2.2	i

no.	HSV replic up primary fold	RGS16-Gao HTS	PKD1 inh
31	0.96	103	-9
32	0.98	98	-3
33	0.96	102	-2
34	x	108	-8
35	0.89	107	2
36	1	100	6
37	0.94	107	0
38	0.93	101	3
39	1	98	-7
40	0.97	115	-1
41	0.83	104	1
42	0.89	105	-2
43	0.81	102	x
44	0.8	100	6
45	0.93	105	-12

Additional compounds follow.
no.	smiles	INS promoter inh	INS promoter inh cell count	GALR2 agonist	HSV replic up
46	CCN=C1SC(C(=O)Nc2cccc(OCC)c2)CC(=O)N1CC (configuration not stated)	-22	117	-0.8	i
47	Cc1cc(=O)[nH]c2n[nH]c(-c3ccccc3)c12	x	x	0.7	i
48	COc1cc(C(=O)Nc2c(C)cc(C)cc2C)c(-n2cnnn2)cc1OC	-15	137	-0.8	i
49	Cc1cc(OCC(=O)O)c2ccccc2n1	-45	143	-0.1	i
50	CN1CCN(CCCNC(=O)c2ccc(/C=C3/Sc4ccccc4N(Cc4cccc(Cl)c4)C3=O)cc2)CC1	x	x	x	i
51	O=C(CCCNS(=O)(=O)c1ccc(Cl)c(Cl)c1)NCCc1ccccn1	-7	130	x	i
52	COc1cc(S(=O)(=O)N2CCC(N3CCCCC3)CC2)ccc1-n1cnnn1	-54	78	-2.5	i
53	COc1ccc(NS(=O)(=O)c2ccc(O)c(C(=O)OCC(=O)Nc3ccc4c(c3)OCCO4)c2)cc1	x	x	-1.2	i
54	CCOc1ccc(C2C([N+](=O)[O-])=C(C)N(C)C(=O)N2C)cc1OC (configuration not stated)	x	x	x	i
55	CC(C)OC(=O)CSc1nnc(CNc2cccc(Cl)c2)n1C	48	115	-0.9	i
56	N/C(=N\OC(=O)c1ccc(Cl)c([N+](=O)[O-])c1)c1ccccn1	0	92	x	i
57	Cc1ccc(C)c(N2CCN(C(=O)CCc3nc4ccccc4[nH]3)CC2)c1	-5	123	0.1	i
58	C=CCc1ccccc1OCC(O)CN1CCN(C(=O)OCC)CC1 (configuration not stated)	x	x	-1.4	i
59	Cc1cccc(Nc2nnc(SCC3CCCCO3)s2)c1 (configuration not stated)	x	x	-0.4	i
60	CCOCC(=O)Nc1nnc(COCC)s1	71	92	-0.5	x

no.	HSV replic up primary fold	RGS16-Gao HTS	PKD1 inh
46	0.93	96	6
47	1	106	-14
48	0.77	100	-7
49	0.83	102	-5
50	0.71	99	-5
51	0.9	145	-1
52	0.88	98	-2
53	1.1	104	2
54	0.84	113	2
55	0.85	102	0
56	0.73	95	-5
57	0.98	100	-4
58	0.87	99	-9
59	0.92	111	13
60	x	101	2

Quoted from the listing:
Entry for compound 43 in RGS16-Gao HTS: 102
Entry for compound 48 in PKD1 inh: -7
Entry for compound 7 in PKD1 inh: -11
Entry for compound 3 in RGS16-Gao HTS: 100
Entry for compound 27 in PKD1 inh: 0

New compounds follow
no.	smiles	INS promoter inh	INS promoter inh cell count	GALR2 agonist	HSV replic up
61	CSc1nnc2c(n1)OC1(Nc3ccccc3-2)C(=O)Nc2ccccc21 (configuration not stated)	x	x	x	i
62	O=C(CSc1nnnn1-c1ccccc1F)NNC(=O)c1ccco1	x	x	x	i
63	CC(C)=CCN1CCN(Cc2ccc(C#CC(C)(C)O)cc2)CC1CCO (configuration not stated)	x	x	x	i
64	O=C(Nc1ccc(Oc2ncnc3cc(Cl)ccc23)nc1)c1cccs1	x	x	x	i
65	CC(C)(C)C(=O)Cn1ncc(Br)c(Br)c1=O	x	x	x	i
66	Nc1nnn(CC(=O)N/N=C/c2ccccc2)n1	x	x	x	i
67	Cc1ccc(/C=C/c2nnc(-c3ccccc3)o2)cc1	x	x	-3.5	i
68	CCOC(=O)C1CCN(C(=O)COc2ccc(S(=O)(=O)N3CCCC3)cc2C)CC1	-64	100	x	i
69	Cc1cc(SCC(=O)c2ccc(O)c(O)c2)n2nc(C)c(-c3ccccc3)c2n1	x	x	x	i
70	COc1ccc2nc(N3CCC(O)CC3)c(C#N)cc2c1	3	139	-0.5	i
71	COc1ccccc1N1CCN(C(=O)CN2C(=O)C3CCCCC3C2=O)CC1 (configuration not stated)	x	x	x	i
72	O=S(Cc1ccc(Br)cc1)Cc1nnc(SCc2c(F)cccc2Cl)n1-c1ccccc1 (configuration not stated)	-11	95	-1.3	i
73	O=C1c2ccccc2C(=O)N1CC(=O)N1c2ccccc2CCc2ccccc21	-8	119	-1.6	i
74	COc1ccc(-c2nc3scc(-c4ccc(OC)c(OC)c4)c3c(=O)o2)cc1	x	x	-0.6	i
75	O=C(NCc1ccc(Cl)cc1)C(=O)NCC1OCCN1C(=O)c1cccs1 (configuration not stated)	x	x	-0.4	i

no.	HSV replic up primary fold	RGS16-Gao HTS	PKD1 inh
61	0.81	97	2
62	0.85	104	-6
63	0.81	105	6
64	0.72	103	x
65	0.67	93	3
66	0.94	102	x
67	0.92	81	2
68	0.84	98	-3
69	0.85	79	x
70	0.96	102	-17
71	0.88	101	-2
72	0.87	115	-6
73	1	104	-12
74	0.82	100	-6
75	1.1	97	6

Other compounds.
no.	smiles	INS promoter inh	INS promoter inh cell count	GALR2 agonist	HSV replic up
76	Cc1cc(C)c2c(CCl)cc(=O)oc2c1	x	x	x	i
77	Cc1ccc(/C=c2\sc3nc(-c4cccnc4)nn3c2=O)cc1	45	66	0.5	x
78	CCCc1cc(=O)[nH]c(SCc2ccc(Cl)cc2)n1	3	88	0.2	i
79	CC(=O)Nc1cccc(OCC(=O)Nc2ccccc2)c1	32	48	-3.5	x
80	O=C(CCN1C(=O)c2ccccc2S1(=O)=O)Nc1ccc2c(c1)OCCO2	-9	168	-0.2	i
81	CN(C)c1ccc(/C=N/n2c(-c3cccnc3)n[nH]c2=S)cc1	x	x	x	i
82	C/C(=N\NC(=S)NC1CCCCC1)c1cccc(Br)c1	x	x	-0.8	i

no.	HSV replic up primary fold	RGS16-Gao HTS	PKD1 inh
76	0.95	102	x
77	x	97	-6
78	0.86	105	-9
79	x	101	-7
80	0.89	97	-5
81	0.96	104	1
82	1.1	62	-2

4 neighbouring compounds already listed, quoted:
no.	smiles	INS promoter inh	INS promoter inh cell count	GALR2 agonist	HSV replic up
76	Cc1cc(C)c2c(CCl)cc(=O)oc2c1	x	x	x	i
77	Cc1ccc(/C=c2\sc3nc(-c4cccnc4)nn3c2=O)cc1	45	66	0.5	x
78	CCCc1cc(=O)[nH]c(SCc2ccc(Cl)cc2)n1	3	88	0.2	i
79	CC(=O)Nc1cccc(OCC(=O)Nc2ccccc2)c1	32	48	-3.5	x

no.	HSV replic up primary fold	RGS16-Gao HTS	PKD1 inh
76	0.95	102	x
77	x	97	-6
78	0.86	105	-9
79	x	101	-7
